Bioassay records (PubChem)
Rango dissoc inh – inhibitors of RanGTP-induced Rango-importin beta complex dissociation; Potency, µM (series often up to 46.1 µM), inactives show top-dose activity change, negative = inhibition; 0.071% of 340,000 active; Biochemical FRET Rango-importin beta, RanGTP-induced dissociation; AID 540253; active means falling FRET ratio curve, often poorly fitted, with flat reads before Ran was added; inconclusive means other falling curves, or compound fluorescence or quenching; inactive means flat or rising ratio curve;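 also: potency is read from the fitted curve at half-maximal effect; % of control where 0% means no effect; nearly all actives have a fitted effect of over 45% in size; -100% = wells without RanGTP and RCC1; the record marks most hits as doubtful in a second field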
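Rango FRET biosensor (snurportin-1 IBB flanked by N-terminal EYFP and C-terminal CFP10) at 0.1 uM, with 0.25 uM importin beta in PBS, 1mM DTT, 0.02% Tween-20, 0.1% BSA. 0.6 uM Ran, 2mM GTP and 0.2 uM RCC1 were then added for 45 min at room temperature. Inhibition read as loss of FRET rise.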
Rango-impB inh – prevents formation of the Rango-importin beta complex; Potency, µM (top dose mostly 92.2 µM), for the others: at the top dose inhibition of complex formation; Rango CFP/YFP FRET sensor + importin beta, 45 min; Q14974; AID 540263; 0.031% of 340,000 active; active = rising FRET ratio curve, often small or poorly fitted; inconclusive = mostly compound fluorescence or quenching in the first reads; inactive = flat curves in all reads;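 also: potency is read from the fitted curve at half-maximal effect; 0% = DMSO wells and 100% = buffer wells lacking importin beta; nearly all actives have a fitted effect of over 15% in size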
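FRET biosensor Rango (snurportin 1 IBB between N-terminal EYFP and C-terminal Cerulean), 50 nM in PBS/1 mM DTT/0.02% Tween-20/0.1% BSA, preincubated 5 min RT with compound; 0.125 microM importin beta added, 45 min RT, CFP/YFP FRET ratio read.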
miR-21 FLuc – miR-21 reporter, rising signal; HeLa miR-21 FLuc reporter, luciferase, 48 h; Potency, µM (doses to about 38.3 µM), for inactives: at the top dose reporter change, positive = more light; 340,000 tested, under 10 active; active = well fitted rising curve with a large enough effect; inconclusive = small, poorly fitted or top-dose-only effect; inactive = no such curve, though single readings can be large or run the other way;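 also: % of control where 0% means no effect; miR-21 action dims this reporter so a rising signal means less miR-21 action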
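Using DMEM plus 10% FBS, HeLa miR-21-FLuc cells are incubated with test compounds (final up to about 40uM) for 48 hours; firefly luciferase signal is then imaged following reagent-mediated lysis.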
GLA inh pH 4.5 – blocks human alpha-galactosidase A at pH 4.5; P06280; purified enzyme, 4-MU-alpha-Gal fluorescence, pH 4.5; activity change, negative = inhibition, % at 105 µM; 230,000 tested, under 10 active; AID 1467; inconclusive = small, poorly fitted or top-dose-only inhibition, or a rising curve; inactive = flat fitted curve, though single readings scatter; no compound was filed as active;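 also: 0% = full activity with enzyme and -100% = basal without enzyme; dose as in the result columns while the protocol names 77 µM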
Target sequence (P06280 whole entry, looked up): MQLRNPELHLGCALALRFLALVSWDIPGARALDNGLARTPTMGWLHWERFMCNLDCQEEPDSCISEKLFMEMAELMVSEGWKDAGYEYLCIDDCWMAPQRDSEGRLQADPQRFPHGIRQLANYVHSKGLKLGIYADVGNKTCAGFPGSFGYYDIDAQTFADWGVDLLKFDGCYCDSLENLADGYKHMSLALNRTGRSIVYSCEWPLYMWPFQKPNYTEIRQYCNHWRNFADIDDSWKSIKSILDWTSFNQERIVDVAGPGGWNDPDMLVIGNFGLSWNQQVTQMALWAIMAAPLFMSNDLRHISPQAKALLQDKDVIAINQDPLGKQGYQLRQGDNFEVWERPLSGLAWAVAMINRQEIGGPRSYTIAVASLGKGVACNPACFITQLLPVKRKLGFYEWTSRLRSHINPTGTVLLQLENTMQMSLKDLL
* = called active by the depositor; ? = inconclusive; . = no result given; & = joins results of further samples.

Below each compound – Rango dissoc inh	Rango-impB inh	miR-21 FLuc	GLA inh pH 4.5
COC(=O)[C@@H]1[C@@H](C)N(Cc2ccccc2)C(=O)N[C@H]1c1cccc(C(F)(F)F)c1
  0%	?	24%	-6&2
COc1cccc(C(=O)NCCS(=O)(=O)N(C)C2CCCCC2)c1
  11%	-2.0%	.	.
C=CCOc1ccc(/C=N/NC(=O)CN2CCCCC2)cc1OC
  -8%	0.6%	-6%	.
CCOc1nc2cnccc2n(CC(=O)Nc2c(C)cccc2CC)c1=O
  -6%	1.6%	-5%	.
CCN(C(=O)COC(=O)C1CC1C)c1c(N)n(Cc2ccccc2)c(=O)[nH]c1=O (configuration not stated)
  -13%	-1.2%	.	.
COc1ccc(NCc2n[nH]c(=O)c3ccccc23)cc1
  -1%	0.2%	-44%	1
Cc1ccc(NC(=S)N(CCN(C)C)Cc2cccs2)c(C)c1
  0%	-1.6%	-5%	2
Cc1ccc(C(=O)N2CCN(c3ccc(N4CCOCC4)nn3)CC2)cc1C
  1%	?	.	.
CCOC(=O)Cc1csc(NC(=O)c2c(-c3c(F)cccc3Cl)noc2C)n1
  -10%	-0.4%	-3%	-9
O=C1C2CC=CCC2C(=O)N1c1n[nH]c(-c2ccccc2)n1 (configuration not stated)
  1%	4.0%	0%	1
CC(C)(C)c1cccc(P(=O)(c2ccccc2)c2ccccc2)c1O
  10%	-2.3%	-15%	-10
O=C(Cn1cc([N+](=O)[O-])cn1)N1N=C(C(F)F)CC1(O)C(F)F (configuration not stated)
  -3%	-4.1%	-9%	-3
CCOC(=O)C1CCN(C(=O)CN2C(=O)c3ccccc3Sc3ncccc32)CC1
  5%	0.0%	-5%	.
COc1ccc(-n2nnnc2S(=O)(=O)Cc2ccc(C(=O)O)cc2)cc1
  28%	2.0%	8%	15
CNC(=S)Nc1cccc(-c2cnc3ccccc3n2)c1
  -10%	1.8%	-35%	.
C/C(=C\c1ccccc1)C(=O)NCCCn1ccnc1
  6%	-0.7%	-10%	-10
C/C(=N\NC(=O)CNC(=O)C1COc2ccccc2O1)c1ccco1 (configuration not stated)
  -8%	4.5%	-2%	.
Cc1ccccc1NC(=O)c1cc(S(=O)(=O)c2ccccc2)ccc1Cl
  -1%	1.4%	2%	3
O=C(O)c1ccc(S(=O)(=O)c2ccccc2)s1
  4%	5.7%	.	.
CS(=O)(=O)N1N=C(c2cccs2)CC1c1ccco1 (configuration not stated)
  ?	?	-15%	8
COc1ccc(CC(=O)NNC(=O)COc2ccc(C)cc2)cc1S(=O)(=O)N1CCOCC1
  32%	-3.0%	.	.
COc1ccc2[nH]c3c(c2c1)CCN1C(=O)N([C@@H](C)C(=O)NCC2CCCO2)C(=O)[C@]31C (some centres not stated)
  7%	-1.1%	1%	.
N=C1SC(c2ccccc2)C(=O)N1c1ncc(Cc2ccccc2)s1 (configuration not stated)
  1%	1.2%	-45%	-5
O=C(/C=C/c1cccc([N+](=O)[O-])c1)Nc1cccc(NC(=O)c2cccs2)c1
  2%	4.5%	27%	-8
COc1cc2c(C#CCCO)c(-c3ccc(C#N)cc3)oc(=O)c2cc1OC
  -17%	?	.	.
NC(=O)CNC(=O)[C@@H]1CC2(CC(c3cccc([N+](=O)[O-])c3)=NO2)CN1C(=O)c1ccccc1 (some centres not stated)
  -4%	0.0%	-2%	-5
Cc1cc2ncn(C(=O)N3CCCCC3)c2cc1C
  6%	-0.1%	-30%	9
Cn1cc(CN2CCN(Cc3ccccc3)C(CCO)C2)c(-c2ccccc2)n1 (configuration not stated)
  -6%	0.4%	-2%	3
Cc1cccc(C(C)C)c1NC(=O)CN1C(=O)NC2(CCc3ccccc32)C1=O (configuration not stated)
  18%	-0.7%	.	.
NC(=O)c1ccccc1NC(=O)/C=C/c1ccc(Cl)cc1
  2%	0.2%	-56%	-3
CCN(c1ccccc1)S(=O)(=O)c1ccc2ccccc2c1
  -5%	-2.5%	-1%	.
COc1cc(C(=O)NC(=S)Nc2nccs2)cc(OC)c1OC
  7%	0.5%	-1%	4
Cc1ccc(NC2=NCC(=O)N2C2CCCC2)c(C)c1
  16%	-2.1%	-1%	-8
COc1ccccc1C(=O)N=C1NC(=O)CC2C(=O)NCCN12 (configuration not stated)
  4%	1.0%	-3%	.
COc1ccccc1OCC(=O)N1CCCCCCC1
  29%	-5.4%	-1%	.
COc1cccc(N2CCN(S(=O)(=O)c3ccc(CN4C(=O)c5cccnc5C4=O)cc3)CC2)c1
  -30%	-1.6%	3%	.
O=C(Nc1ccc(S(=O)(=O)Nc2ncccn2)cc1)c1ccc(Cl)c([N+](=O)[O-])c1
  4%	0.7%	-5%	.
CCC1(c2ccc(OC)cc2)NC(=O)N(CC(=O)NC2CCCCC2C)C1=O (configuration not stated)
  6%	0.5%	.	.
CCOC(=O)c1sc(=S)n(-c2ccc(Cl)cc2)c1SC
  -23%	8.6%	-2%	?
O=C1C2C(C(=O)N1/N=C/c1cc(Br)cc([N+](=O)[O-])c1O)C1C=CC2C12CC2 (configuration not stated)
  -2%	3.2%	-2%	-3
COc1cc2c(cc1OC)C(c1ccccc1)N(C(=O)CCl)CC2 (configuration not stated)
  11%	-0.9%	11%	11
COc1cc2c(-c3ccccc3)c(C)oc2cc1/C=N/NC(N)=S
  19%	5.4%	.	.
Cc1ccc(-c2cc(C(=O)OCC(=O)N(C)C3CCS(=O)(=O)C3)c3ccccc3n2)c(C)c1 (configuration not stated)
  -15%	-1.3%	0%	-14
CC1CCN(C(=O)CN(c2ccc3c(c2)OCO3)S(C)(=O)=O)CC1
  -6%	0.4%	-4%	-4
O=C(Nc1nc2ccccc2s1)c1ccc2c(c1)OCO2
  2%	0.1%	18%	-5
COc1ccc2c(c1)CCc1cnc(N)nc1-2
  1%	-2.3%	6%	13
CC(=O)N(C(C)=O)c1ncn(C)c1S(=O)(=O)Nc1ccccc1
  -3%	-3.9%	.	.
Clc1ccc(C(c2nnnn2CCc2ccccc2)N2CCSCC2)cc1 (configuration not stated)
  -3%	0.6%	3%	1
CCOc1cc(/C=C2/NC(=O)N(CC(=O)OC)C2=O)ccc1O
  -11%	0.2%	11%	-8
Oc1ccc(N=Nc2cccc(C(F)(F)F)c2)cc1C=Nc1ccc(N2CCOCC2)cc1
  -8%	1.2%	-8%	-3
CNS(=O)(=O)c1cccc(C(=O)NCC2CCCCC2)c1
  0%	-1.7%	-12%	.
Cc1ccsc1/C=N/NC(=S)NCCc1ccccc1
  -9%	-5.2%	-29%	-16
CCCCn1c(=O)n(CC(=O)Nc2ccc(OC)c(Cl)c2)c(=O)c2c1nc(CO)n2CCC
  -9%	-6.3%	-15%	-11
CCOC(=O)N1CCN(C2=CC(=O)OC23CCCCC3)CC1
  6%	-0.5%	7%	4
CC(=O)Nc1ccc(S(=O)(=O)NCCc2cc3c(C)ccc(C)c3[nH]c2=O)cc1
  -1%	-4.4%	-3%	-10
CC(=O)CSc1nc(CCc2ccccc2)c(C#N)c(=O)[nH]1
  -2%	-0.2%	.	.
Cc1ccsc1/C=N/NC(=O)c1ccc2ccccc2c1
  1%	-2.1%	-18%	.
COCCC(=O)N1CCC(Oc2ccc(C(=O)N3CCCCCC3)cc2)CC1
  -10%	-0.7%	-4%	.
Cc1ccc2nc(SCC(=O)NC3CC3)[nH]c2c1
  19%	1.0%	-6%	.
CN(C)c1ccc(CNc2nc(-c3ccccc3)nn2S(C)(=O)=O)cc1
  -14%	-2.0%	-44%	-2

Ordered by the number under Rango-impB inh (smallest number first): three from the list above
Below each compound – Rango dissoc inh	Rango-impB inh	miR-21 FLuc	GLA inh pH 4.5
CCOC(=O)N1CCN(C2=CC(=O)OC23CCCCC3)CC1
  6%	-0.5%	7%	4
CCOc1cc(/C=C2/NC(=O)N(CC(=O)OC)C2=O)ccc1O
  -11%	0.2%	11%	-8
Clc1ccc(C(c2nnnn2CCc2ccccc2)N2CCSCC2)cc1 (configuration not stated)
  -3%	0.6%	3%	1

Going on with the list:
Below each compound – Rango dissoc inh	Rango-impB inh	miR-21 FLuc	GLA inh pH 4.5
CCN(CC)S(=O)(=O)c1ccc2c(c1)nc(SCC(=O)NCC1CCCO1)n2CC (configuration not stated)
  19%	-0.4%	.	.
COc1ccc(N(C(=O)Cc2cccs2)C(C(=O)NC2CCCC2)c2ccncc2)cc1 (configuration not stated)
  -19%	-2.6%	-8%	.
COc1cc(/C=C2\SC(=O)N(CCNC(=O)c3cnc(C)cn3)C2=O)cc(OC)c1OC
  0%	0.2%	-8%	-1
O=C(Cc1noc2ccccc12)NNC(=S)Nc1ccccc1
  -4%	0.0%	-5%	-18
O=C(NCC1CCCO1)c1ccccc1-c1nc(-c2ccccc2F)no1 (configuration not stated)
  14%	2.6%	-3%	.
COc1ccc(C2NC(=O)NC3=C2CCc2ccccc23)cc1 (configuration not stated)
  1%	?	16%	13
Cc1ccc(NC(=O)/C=C2\NC(=O)CS2)cc1
  2%	-0.5%	-64%	.
CCOC(=O)c1nn(-c2ccccc2)c(-c2ccccc2)c1C(=O)c1ccccc1
  -9%	1.5%	6%	-4
Cc1cc(C)n2c(SC(C)C(=O)NC3(C#N)CCCCC3)nnc2n1 (configuration not stated)
  9%	0.3%	.	.
Cc1cc(C)n(C(=O)c2cc(F)c(F)cc2C)n1
  -10%	-3.9%	-16%	3
COc1cc(CCc2ccc3c(c2)OCO3)oc(=O)c1
  3%	3.7%	-15%	2
O=C(CCCC(=O)N1CCN(c2ccccc2F)CC1)N1CCN(c2ccccc2F)CC1
  11%	0.0%	-4%	3
CC1CCC(NC(=O)c2cccn2C)CC1 (configuration not stated)
  6%	-1.6%	.	.
Cc1nn(-c2ccccc2)c(Cl)c1C(=O)NCC(C)c1ccccc1 (configuration not stated)
  -9%	0.2%	-31%	.
COCCCNC(=O)CS(=O)Cc1nc(-c2cccc(OC)c2)oc1C (configuration not stated)
  -11%	6.5%	-4%	-3
Cc1c(Cl)cccc1NC(=S)N(CCN(C)C)C(C)c1ccccn1 (configuration not stated)
  -12%	-1.5%	0%	5
Cc1cccc(C)c1NS(=O)(=O)c1c(C)[nH]c(=O)[nH]c1=O
  -2%	-0.1%	0%	4
CCc1c(C(=O)Nc2ccc(OC)c(Cl)c2)[nH]c(C)c1C(C)=O
  -12%	-2.8%	2%	8
COc1ccc(C(=O)n2cc(C(=O)c3cc(C)ccc3O)cn2)cc1OC
  9%	-4.3%	22%	-4
O=C(NC1CC1)C1CCN(C(=O)c2ccc(Cl)cc2Cl)CC1
  -9%	-0.1%	4%	.
CCC(=O)Nn1c(C2CCC2)nc2ccccc2c1=O
  1%	3.4%	-5%	.
O=C(CSc1n[nH]c(-c2ccccc2Cl)n1)NC1CCCCC1
  2%	2.8%	-1%	.
CCCn1cnc2c(SCc3ccccn3)nc(N)nc21
  5%	0.5%	.	.
CCOC(=O)N1CCN(Cc2nc3cc([N+](=O)[O-])ccc3n2CC)CC1
  -11%	4.7%	-1%	.
Cc1ccccc1OCC(=O)Nc1ccccc1N1CCCCC1
  8%	3.4%	-2%	-4
Cc1cccn2c(=O)c(C=O)c(N3CC(C)OC(C)C3)nc12 (configuration not stated)
  5%	0.1%	3%	-1
NC(=O)CC[C@H](NC(=O)c1ccc(F)cc1)C(=O)OCC(=O)NCc1ccc(F)cc1
  2%	-2.4%	0%	-2
CC(=O)NC(=S)Nc1ccc(NC(=S)NC(=O)c2ccc([N+](=O)[O-])cc2)cc1
  14%	-4.8%	-3%	-1
NS(=O)(=O)c1cccc(NC(=O)COC(=O)c2cc(-c3ccc(Cl)cc3)nc3ccccc23)c1
  0%	-5.6%	-25%	-6
Oc1ccccc1Nc1ccccn1
  2%	-0.7%	-22%	-9
O=C(COc1ccc(/C=N/NC(=O)c2ccc(O)cc2)cc1)Nc1ccc([N+](=O)[O-])cc1
  0%	-3.2%	-12%	-14

This is a subset; count on the stated rates, not on these rows.
